High-throughput results: PubChem BioAssay, National Center for Advancing Translational Sciences (NCATS)
VACV Venus inh = inhibitors of vaccinia virus (Venus reporter) | actives 0.46% (n = 330,000) | Potency, µM (highest dose often 36.5 µM), for inactives: at the top dose activity change, negative = inhibition, most hits filed as inhibitors | Vaccinia virus Venus reporter expression, fluorescence; active means well fitted inhibition curve with a large enough effect; inconclusive means small, poorly fitted or top-dose-only effect; inactive means no such curve, though single readings can be large or run the other way; tested in A549 cells; note: nearly all actives have a fitted effect of over 30% in size; inactives centre near -10
VACV mCherry inh = inhibitors of vaccinia virus infection (mCherry reporter signal) | Vaccinia virus mCherry reporter infection, fluorescence; about a quarter of the inactives have no number | Potency, µM (highest dose often 36.5 µM), for inactives: at the highest dose activity change, negative = inhibition, usual class: inhibitors | actives 0.63% (n = 310,000) | AID 720579; active = well fitted inhibition curve with a large enough effect; inconclusive = small, poorly fitted or top-dose-only effect; inactive = no such curve, though single readings can be large or run the other way; tested in A549 cells; note: nearly all actives have a fitted effect of over 35% in size; inactives centre near -10
* marks the source's active call; other numbers are inactive results; i = inactive; ? = inconclusive; . = no result given; [ ] = dose if it differs, or a comment. % is set by controls: 0 for no effect and ±100 for the full control effect; potency is the fitted concentration of half-maximal effect. This is a random part of the collection, and some 0.88% of all compounds hit somewhere here.

structure | VACV Venus inh | VACV mCherry inh
CC(OC(=O)Cn1cnc2c1c(=O)n(C)c(=O)n2C)C(=O)NC1(C#N)CCCCC1 (stereo not drawn) | -13.8% | -9.4%
Cc1ccc(NC(=O)c2ccccc2NS(=O)(=O)c2ccc(Cl)s2)cc1 | ? | ?
C=CCn1c(SCCC)nc2sc3c(c2c1=O)CCc1ccccc1-3 | -8.7% | i
Cc1cc(C(Br)(Br)Br)nc2ccccc12 | ? | ?
O=C(C1CCC1)N1CCC(O)(c2cccc(F)c2)CC1 | -6.5% | -1.9%
CCOc1ccc(CCNC(=O)CN2C(=O)COc3ccc(S(=O)(=O)N4CCCC4)cc32)cc1 | -14.1% | -16.8%
COc1cc(NC(=O)CCCNC(=O)Cn2cnc3sc4c(c3c2=O)CCCC4)cc(OC)c1OC | -5.8% | -2.7%
COc1ccc(N(CC(=O)NCc2ccc3c(c2)OCO3)S(=O)(=O)c2ccccc2[N+](=O)[O-])c(OC)c1 | -10.9% | i
CC(=O)c1ccc(N2CCN(C(=O)c3ccco3)CC2)c(F)c1 | -8.7% | i
CCN(CC)c1ccc(C=Nc2ccc(N(C)C)cc2)c(O)c1 | 26.8% | 18.1%
CC1(C)OC(C)(C)/C(=C/Nc2ccccc2)C1=O | -11.6% | -13.0%
COc1ccc(N(C)S(=O)(=O)c2cccc3nsnc23)cc1 | -5.6% | i
NC(=O)CCn1nc(-c2ccc(Cl)cc2)c2ccccc2c1=O | -29.4% | -24.8%
O=C(COc1ccc(Cl)cc1)N1CCN(c2ccc([N+](=O)[O-])c(N3CCCCC3)c2)CC1 | -4.0% | -9.5%
O=C(CCNC(=O)N1CC(=O)Nc2ccccc21)NCc1ccccc1Cl | -10.1% | -6.7%
O=C(CCNC(=O)c1ccco1)Nc1cccc(C(F)(F)F)c1 | 0.0% | i
COc1ccc(C)cc1S(=O)(=O)N(C)CC(=O)NC1CCCCCC1 | -10.5% | i
Cc1ccc(NC(=O)COC(=O)CN2C(=O)NC(C)(C)C2=O)cc1S(=O)(=O)N1CCOCC1 | -7.0% | -12.7%
COc1cc(OC)cc(C(=O)NCCCNC(=O)c2ccccn2)c1 | -6.2% | i
CCCc1c(C)nc2ccc(OC)cc2c1SCCC(=O)O | 0.8% | -1.8%
COc1ccc(-n2c(Cc3cccn3C)nnc2SCC(=O)Nc2cc(C)cc(C)c2)cc1 | -8.8% | -17.4%
Cc1cc2cc(CN(Cc3ccc4c(c3)OCO4)Cc3nnnn3C3CCCC3)c(=O)[nH]c2cc1C | -5.7% | -13.0%
O=C(CSc1nnc(Cc2ccccc2)n1C1CCCCC1)N1CCOCC1 | -8.5% | -10.1%
COc1cc(/C=N/NC(=O)c2nc(C)cc(C)n2)ccc1O | -9.3% | -1.2%[1.46 µM]
O=C(CCCCC(=O)Nc1c(I)cc(I)c(C(=O)O)c1I)Nc1c(I)cc(I)c(C(=O)O)c1I | -10.0% | i
COC(=O)c1ccc(=O)n(CC(=O)c2ccc(Cl)cc2)c1 | -1.5% | -8.6%
Cc1cccc(CN2C(=O)c3ccccc3S(=O)(=O)c3ccc(C(=O)N4CCCC4)cc32)c1 | -16.6% | -8.8%
COc1ccccc1C(=O)Nc1nc(-c2ccc(Br)cc2)ns1 | -2.1% | -0.6%
CN1C(=O)/C(=C/c2ccc(OC(=O)c3ccco3)cc2)SC1=S | -0.3% | -2.6%
CCCCC[C@@H](C)N1C[C@@H](COCc2ccccc2)Oc2cc(N3CCC[C@@H]3CO)ccc2S1(=O)=O | -12.5% | -13.8%
C=C1CCN(c2ccc(C(=O)NCc3ccccc3)cc2[N+](=O)[O-])CC1 | -17.7% | i
CCN(CC)CC(C)(C)NS(=O)(=O)c1ccc(Cl)cc1 | -9.8% | 4.2%
CC(=O)Nc1ccc(S(=O)(=O)N2CCC(Oc3ccc(-n4cnnn4)cc3)CC2)cc1 | -26.7% | ?
COCC(=O)Nc1ccc(Nc2ccccc2)cc1 | 3.7% | -1.7%
COc1ccc(/C=N\NC(=O)c2c(C)nc3ccc(Br)cn23)cc1 | ? | ?
Cc1ccc(C(=O)O)cc1NC(=O)Nc1ccc2c(c1)OCO2 | 7.2% | -14.1%
Cc1cccc(Nc2ncnc3c2cnn3C)c1C | -13.3% | -15.2%
COc1ccc(NC(=O)CCc2c(C)nc3nc(CNC(=O)c4cccc(F)c4)nn3c2C)cc1OC | -22.5% | -19.5%
Fc1cccc(F)c1[B-](F)(F)F | -6.1% | 3.8%
CSC(=NC(C)c1ccccc1)NS(=O)(=O)c1cccs1 (stereo not drawn) | -15.7% | -4.9%
CSC(=NC#N)N1CCN(c2cccc(Cl)c2)CC1 | -19.1% | ?
CCOc1ccc(C=NNC(=O)c2cccc3ccccc23)cc1OCC | -8.1% | -12.0%
COC(=O)c1ccc(CSc2nnc(NC(C)C)s2)cc1 | -18.8% | .
CCN1CCN(CCCNC(=O)C2CCN(c3nnc(-n4cccc4)s3)CC2)CC1 | 0.0%[7.34 µM] | 0.0%[7.34 µM]
CCOc1cccc2sc(NC(=O)c3ccc(Br)s3)nc12 | -22.2% | -23.6%
COc1ccc(NC(=O)c2ccc(F)c(F)c2)c2ccccc12 | -3.7% | -15.0%
COC(=O)c1ccccc1NC1=C/C(=N\S(=O)(=O)c2ccc(C(=O)O)cc2)c2ccccc2C1=O | ? | 25.1µM*
Cc1cc(NCCCO)n2nc(-c3cccs3)cc2n1 | -9.8% | i
Cc1cc(C)n(-c2ccc(C(=O)Nc3sccc3C(N)=O)cc2)n1 | ? | .
COc1ccc(/C=C(/NC(=O)c2ccco2)C(=O)N2CCCC2=O)cc1 | -7.1% | i
Cc1cc(C=O)c(C)n1-c1cc(C(F)(F)F)ccc1N1CCOCC1 | -21.9% | -14.5%
O=C(Nc1ccccc1O)c1ccc(C(=O)c2ccccc2)o1 | -27.6% | -17.2%
Nn1c(SCc2cccc(Br)c2)nnc1-c1ccncc1 | -13.0% | i
COC(=O)[C@H](Cc1ccc(O)cc1)NC(=O)Cn1cnc2c(NCc3ccccc3)ncnc21 | 1.0% | i
Cc1nn(CC(=O)N2CCOCC2)c(=O)c2c1sc1ccccc12 | -7.7% | i
O=C(Nc1ccccc1Cl)c1cc(C2CCCN(C(=O)c3ccc4c(c3)CCO4)C2)on1 (stereo not drawn) | -8.4% | -19.2%

The list goes on.
structure | VACV Venus inh | VACV mCherry inh
O=C(NCc1cccs1)C(=O)NCC1OCCCN1S(=O)(=O)c1ccc(F)cc1 (stereo not drawn) | 3.5% | -9.3%
N#CC(c1nc2ccccc2nc1OCCO)S(=O)(=O)c1ccccc1 (stereo not drawn) | 4.8% | -3.9%
Cc1ccc(CNC(=O)Cn2nc(N3CCN(c4ccccc4)CC3)ccc2=O)cc1 | -0.3% | -5.4%
COc1cc(C(=O)OC(C)C(=O)Nc2ccc3c(c2)OCO3)ccc1OCc1c(C)noc1C (stereo not drawn) | -17.3% | -17.5%
CCn1nc(C)c(Br)c1-c1nc(-c2ccc(C)cc2)no1 | -1.8% | -24.2%
O=[N+]([O-])c1cccc(COc2cccc(CN3CCCC3)c2)c1 | -8.0% | -14.0%
CC(=O)c1cccc(S(=O)(=O)N2CCC(C(=O)Oc3ccc(-c4nnco4)cc3)CC2)c1 | -7.6% | -1.5%
CCOCCC(=O)Nc1ccc2c(c1)c(=O)n(C)n2-c1ccccc1F | 3.1% | 8.1%
O=C(CSc1oc(-c2ccccc2)nc1S(=O)(=O)c1ccccc1)NCC1CCCO1 (stereo not drawn) | -16.7% | i
O=S(=O)(NCCCc1ccccc1)c1cccc2nsnc12 | -27.7% | -21.8%
Cc1cccc(NCC(=O)N/N=C\c2ccc[nH]2)c1 | 8.4% | ?
CCOC(=O)c1oc2ccc(S(=O)(=O)n3nc(-c4cc(OC)cc(OC)c4)cc3N)cc2c1C | -21.2% | -25.3%
CCCCn1c(O)c(C(CC)=NCCc2ccccc2)c(=O)[nH]c1=O | -16.9% | .
COc1ccc(-c2csc(C(C)(O)c3ccccc3)n2)cc1OC (stereo not drawn) | -7.8% | i
O=C(NCc1cc(C(F)(F)F)cc(C(F)(F)F)c1)C12CN(Cc3ccccc3)CC1C(c1cccc([N+](=O)[O-])c1)=NO2 (stereo not drawn) | -16.4% | -20.0%
CC(C)(O)CN(C(=O)c1ccc([N+](=O)[O-])cc1)C1CCCC1 | -3.3% | i
CCOC(=O)N1CCC(NC(=O)c2ccc3c(c2)N(Cc2ccc(F)cc2)C(=O)c2ccccc2S3=O)CC1 (stereo not drawn) | -11.0% | -10.8%
CCc1nnc2c3ccccc3nc(Nc3ccc(C(C)=O)cc3)n12 | -12.3% | -19.8%
Cc1cc(/C=N/n2cnnc2)c(C)n1-c1cccc(Cl)c1 | -15.2% | .
CC1(C)CC(=O)CC(=NCC(=O)O)C1 | -4.8% | -10.0%
CCNC(=S)N/N=C/c1cc(C)n(-c2ccc(Cl)cc2)c1C | 1.0% | -6.8%
CN(C(=O)COC(=O)c1cc2c(s1)CCCCC2)C1CCS(=O)(=O)C1 (stereo not drawn) | -16.6% | i
CC(=O)c1ccc(N(C(=O)CNC(=O)c2ccco2)C(C(=O)NC2CCCC2)c2cccnc2)cc1 (stereo not drawn) | -0.5% | 7.4%
Cc1ccc(C)c(N2CCN(C(=O)CCNS(=O)(=O)c3ccc4c(c3)CCN4C(=O)C3CC3)CC2)c1 | -7.6% | -15.4%
CCc1ccccc1NC(=S)N(CCCN1CCN(C)CC1)Cc1cccs1 | 0.4% | ?
COc1ccccc1N1CCN(C(=O)CSc2ncccc2-c2nc3ccccc3[nH]2)CC1 | -12.4% | -16.5%
COc1ccc(Cn2nnnc2C(c2ccc(N(C)C)cc2)N2CCC(C)CC2)cc1 (stereo not drawn) | 15.3% | .
CC(C)c1cc(=O)oc2c3c4c(cc12)CCCN4CCC3 | 21.3% | -8.0%
CC(=O)OC1CC[C@@]2(C)C(=CC(=O)C3C4CCC(OC(C)=O)[C@@]4(C)CCC32)C1 (stereo partly drawn) | -7.9% | -13.1%
C=CCOc1ccc(/C=C/C(=O)OCC(=O)NCc2ccco2)cc1 | 6.8% | -6.6%
O=C1/C(=C/c2ccncc2)N2CCC1CC2 | ? | -12.4%
CN1CCCN(C(=O)c2ccc(Br)cc2)CC1 | -15.4% | -7.0%
CC(C)Oc1ccc(C2CC(=O)N(c3ccc(N(C)C)cc3)C2=O)cc1 (stereo not drawn) | -7.1% | .
CC(C)c1onc(C(=O)N2CCCCC2C)c1[N+](=O)[O-] (stereo not drawn) | -12.0% | -15.0%
O=C(Cc1ccc(Br)cc1)N1CCN(c2ccc(F)cc2)CC1 | ? | .
Brc1ccccc1-c1cnco1 | -9.1% | -19.6%
Cn1cc(-c2csc(C(O)c3ccccc3)n2)cn1 (stereo not drawn) | 3.1% | 4.7%
O=[P+](Cc1ccccc1)Cc1ccccc1 | -19.3% | .
C[C@@H]1CN[C@@H](CCO)/C1=C\c1ccccc1 | -3.0% | i
Cc1ccc(S(=O)(=O)NCCNc2ccccc2[N+](=O)[O-])cc1 | -9.0% | -6.2%

A run of entries from the list above, as a working copy:
structure | VACV Venus inh | VACV mCherry inh
Cn1cc(-c2csc(C(O)c3ccccc3)n2)cn1 (stereo not drawn) | 3.1% | 4.7%
O=[P+](Cc1ccccc1)Cc1ccccc1 | -19.3% | .

More records follow:
structure | VACV Venus inh | VACV mCherry inh
CC(C)NC(=O)CN1CCN(c2ncccn2)CC1 | -2.3% | ?
O=C(c1cccc(Cl)c1)n1nc(-c2cccnc2)nc1NCc1ccccc1 | -14.5% | -17.1%
CCCCn1c(SCC(=O)Nc2cc(C)on2)nc2ccccc2c1=O | -9.8% | i
COc1ccc(C2(CNC(=O)c3ccc(OC)c([N+](=O)[O-])c3)CCCCC2)cc1OC | -21.8% | -1.7%
COCCN(CCOC)Cc1cc(=O)oc2cc(C)c(C)cc12 | -2.8% | 41.0%[activator]
OCCOCCn1c(-c2ccccc2)nc(=S)c2c1CCCC2 | -26.6% | -32.0%
Cc1ccc(NC(=O)c2cccc(N3CCCS3(=O)=O)c2)cc1 | -11.9% | -12.6%
O/N=C(\C[n+]1ccccc1)c1ccc(Br)cc1 | -7.8% | -24.9%
COc1ccc(NC(=O)COC(=O)/C=C/c2ccccc2[N+](=O)[O-])cc1 | -7.7% | -20.8%
COc1ccc(N2C(=O)CC(NC34CC5CC(CC(C5)C3)C4)C2=O)c(OC)c1 (stereo not drawn) | -5.3% | -5.5%
COc1cc(N)c2ncccc2c1SC | -9.3% | -1.2%
COc1ccc(NC(=O)C2CCN(S(=O)(=O)c3cccc4nonc34)CC2)cc1OC | -14.8% | -0.2%
COc1ccc(S(=O)(=O)NCC(c2cccnc2)N2CCN(C)CC2)cc1OC (stereo not drawn) | -16.8% | i
COc1cccc(CN2CCNC(=O)C2CC(=O)N(C)C2CCCCC2)c1 (stereo not drawn) | -0.1% | -20.7%
C=CCn1c(-c2ccc(OC)c(OC)c2)cs/c1=N\c1ccccn1 | -11.1% | i
Oc1ccccc1-c1nc(/C=C/c2ccc(F)cc2)nn1-c1ccccc1 | -2.1% | -6.1%
COc1cc(OC)c2c(-c3cccc(-c4ccc(OC)c(OC)c4)c3)cc(=O)oc2c1 | ? | -25.0%
COCCCNCCCCOc1ccc(C)cc1[N+](=O)[O-] | -5.0% | -8.3%
COCCNC(=S)N/N=C/c1ccccc1C(=O)O | -13.3% | -19.5%
